# From PubChem BioAssay
# Vaccinia Venus = qHTS for Stage-Specific Inhibitors of Vaccinia Orthopoxvirus: Venus Reporter Primary qHTS | Vaccinia virus Venus reporter expression, fluorescence | Potency, µM (doses to about 36.5 µM), without a hit: top-dose activity change, negative = inhibition, hits mostly inhibitors | actives 0.46% (n = 330,000) | AID 720580, 2013; active means well fitted inhibition curve with a large enough effect; inconclusive means small, poorly fitted or top-dose-only effect; inactive means no such curve, though single readings can be large or run the other way; tested in A549 cells; also: nearly all actives have a fitted effect of over 30% in size; inactives centre near -10
# VACV mCherry inh = qHTS for Stage-Specific Inhibitors of Vaccinia Orthopoxvirus: mCherry Reporter Primary qHTS; Vaccinia virus mCherry reporter infection, fluorescence; about a quarter of the inactives have no number; actives 0.63% (n = 310,000); Potency, µM (series often up to 36.5 µM), for the others: at the top dose activity change, negative = inhibition, usual class: inhibitors; active = well fitted inhibition curve with a large enough effect; inconclusive = small, poorly fitted or top-dose-only effect; inactive = no such curve, though single readings can be large or run the other way; tested in A549 cells; also: nearly all actives have a fitted effect of over 35% in size; inactives centre near -10
# An asterisk follows results filed as active; i = inactive; ? = inconclusive; . = not tested or not shown; [ ] = dose if it differs, or a comment. % is scaled to controls: 0 for no effect and ±100 for the full control effect; potency is read from the fitted curve at half-maximal effect.
SMILES,Vaccinia Venus,VACV mCherry inh
Cn1c(=O)oc2cc(S(=O)(=O)N3CCCC(C(=O)NC4CCCc5ccccc54)C3)ccc21 (stereo unspecified),?,?
O=C(O)c1ccc(CNC(=O)C2CCN(S(=O)(=O)c3ccc4c(c3)OCCO4)CC2)cc1,-12%,-25%
CC1Cc2ccccc2N1C(=O)COC(=O)c1ccc(Br)o1 (stereo unspecified),-7%,0%
O=C1CN(C(=O)COC(=O)CNC(=O)c2ccccc2)c2ccccc2N1,-13%,i
CC(=O)Nc1ccc(C2(c3ccc(NC(C)=O)cc3)C(=O)Nc3ccccc32)cc1,-1%,-1%
COC1=CC=C2[C@H]3Cc4ccc(OC)c5c4[C@@]2(CCN3C)[C@H]1O5,-6%,-21%
CCc1ccc(-c2nc3c(=O)n(C)c(=O)nc-3n(CC)n2)cc1,11µM*,5.6µM*
COCCCNC(=O)CCc1c(C)c2cc3c(C)coc3cc2oc1=O,0%,i
CC1(Cc2ccc(OC(F)(F)F)cc2)C(=O)Nc2ccc(OC(F)(F)F)cc21 (stereo unspecified),?,3%
NS(=O)(=O)c1ccc(Nc2nc3ccccc3nc2NS(=O)(=O)c2cccc([N+](=O)[O-])c2)cc1,-15%,-23%
c1ccc(-c2nnc(-c3ccncc3)nc2-c2ccccc2)cc1,8%,-5%
O=C(Nc1ccc(Cl)cc1)NN1CCCCCC1,-12%,-26%
CN(C)C(=O)Cn1c(=O)n(S(=O)(=O)c2ccccc2)c2ccccc21,-20%,-2%
O=C(c1cccc(N2C(=O)C3CC=CCC3C2=O)c1)N1CCN(c2ccccc2)CC1 (stereo unspecified),1%,-8%
CO/N=C/C1CCN(c2ncc(C(F)(F)F)cc2Cl)C1=O (stereo unspecified),-8%,?
CCn1c(CC(=O)Nc2ccccc2F)nnc1SCC(=O)N1CCN(c2ccccc2)CC1,-4%,.
O=C(CSc1ncccn1)Nc1ccc2[nH]c(=O)[nH]c2c1,-14%,i
O=C(Oc1ccc(OC(=O)c2ccco2)c(S(=O)(=O)c2ccc(Br)cc2)c1)c1ccco1,-23%,-29%
CCCS(=O)(=O)NC(=O)C1(C)CCN(C(=O)c2ccc(OC)cc2OC)C1 (stereo unspecified),2%,13%
C#CCOCCOCCOCCNc1nc(N2CCN(C(=O)CCCCCCCCCCNC(=O)[C@H](CCCCN)n3cc(CCCC(=O)O)nn3)CC2)nc(N2CCN(C(=O)CCCCCCCCCCNC(=O)[C@@H]([C@H](C)O)n3cc(C)nn3)CC2)n1,-8%,-11%
O=C(N/N=C/c1cn(-c2ccccc2)nc1-c1cccs1)c1ccncc1,-20%,-26%
O=Cc1c(NCCCN2CCCC2=O)c2ccccc2[nH]c1=O,-5%,i
COc1ccc(CCNC(=O)c2ccc3c(c2)nc2n3CCOC2)cc1OC,-6%,-8%
CN(C(=O)CN1CCN(c2cc(-c3ccc(-c4ccccc4)cc3)ncn2)CC1)c1ccccc1,?,?
CC(C)(OC(=O)c1ccc(F)cc1)c1cc2ccccc2c(=O)o1,-11%,i
COc1cc(/C=N/Nc2nc(C)cc(=O)[nH]2)ccc1OC(=O)c1cccnc1,9%,-22%
CN(C)C(=O)c1c([N+](=O)[O-])c(C(C)(C)C)nn1C,-16%,i
Cc1noc(C)c1NC(=O)Nc1ccc2c(c1)C(=O)N([C@H](C)CO)C[C@H](C)[C@@H](CN(C)C(=O)Nc1ccc3c(c1)OCO3)O2,2%,i
Cn1c(=O)c2cn(-c3ccc4c(c3)OCCO4)cc2n(C)c1=O,5%,.
CC1(c2ccc(Cl)cc2)NC(=O)CS1 (stereo unspecified),-8%,i
O=S(=O)(Nc1cc(S(=O)(=O)N2CCOCC2)ccc1Cl)c1ccccc1,-4%,-12%
C1CN(CCN2CCOCC2)CCN1,-5%,-11%
COc1ccc(Cc2c(-c3ccc(Cl)cc3)nc3cc(C)c(Br)c(C)n23)c(C)c1,-2%,-7%
O=C(Cn1c2ncccc2c(=O)n1-c1ccccc1)NCc1ccccc1,-3%[7.34 µM],-7%[7.34 µM]
CCOc1ccc(NC(=O)c2c(NC(=O)c3ccncc3)sc3c2CCC(C(C)(C)C)C3)cc1 (stereo unspecified),-3%,-25%
O=C(CCl)N(Cc1cc(=O)[nH]c2ccccc12)c1ccccc1,?,?
C[C@H](CO)N1C[C@H](C)[C@@H](CN(C)C(=O)Nc2ccccc2)Oc2ccc(NC(=O)CCN3CCOCC3)cc2C1=O,1%,i
COc1cc(/C=C2\C(=O)N(CCC#N)N=C2C)ccc1OCC(=O)Nc1ccccc1,-8%,i
CCCCn1c2ccccc2c2cc(CC(N)=O)ccc21,-20%,-11%
COC(=O)c1cc(Br)c(=O)n(Cc2cccnc2)c1,-2%,.
CCOc1ccc(NC(=O)c2nc(S(=O)(=O)Cc3ccc(F)cc3)ncc2Cl)cc1,?,?
CC(=O)Nc1ccc(C(=O)Nc2cc(C)on2)cc1,-2%,-12%
CCOc1ccc(NS(=O)(=O)c2ccc(C(=O)N3CCCCC3)cc2)cc1,-24%,i
CCN(C[C@H]1N[C@@](CC)(C(=O)OC)[C@H]2C(=O)N(C)C(=O)[C@@H]12)C(=O)COC,1%,-19%
Cc1ccc(S(=O)(=O)N2CCN(C(=O)CNC(=O)c3ccc(Br)o3)CC2)cc1,-18%,-8%
COc1cc(NC(=O)CN2C(=O)C(c3ccccc3)=NC2(C)C)cc(OC)c1,-15%,i
Cc1ccc(N(CC(=O)Nc2ccccc2C(=O)NCc2ccco2)S(=O)(=O)c2ccccc2)cc1C,-15%,-2%
CCOC(=O)C1CSc2[nH]c(=O)sc2C1c1ccccc1 (stereo unspecified),-17%,-27%
COc1cc(C(=O)Oc2cccc(C(=S)N3CCOCC3)c2)cc(OC)c1OC,-15%,i
COc1cccc(C(=O)NCC(c2ccco2)N2CCc3ccccc3C2)c1 (stereo unspecified),-3%,-11%

# Arranged by formula weight (highest first): part of the list above
SMILES,Vaccinia Venus,VACV mCherry inh
Cc1ccc(N(CC(=O)Nc2ccccc2C(=O)NCc2ccco2)S(=O)(=O)c2ccccc2)cc1C,-15%,-2%
CCN(C[C@H]1N[C@@](CC)(C(=O)OC)[C@H]2C(=O)N(C)C(=O)[C@@H]12)C(=O)COC,1%,-19%
CC(=O)Nc1ccc(C(=O)Nc2cc(C)on2)cc1,-2%,-12%

# (cont.)
SMILES,Vaccinia Venus,VACV mCherry inh
Nc1cc(C(=O)N2CCN(c3ccc([N+](=O)[O-])cc3)CC2)ccc1N1CC2CC(C1)c1cccc(=O)n1C2 (stereo unspecified),-14%,-16%
Cc1cccc(CSCCNC(=S)Nc2ccccc2)c1,-10%,-13%
CCOc1ccccc1N1CCN(C(=O)C(Sc2ccccc2)c2ccccc2)CC1 (stereo unspecified),-19%,.
COc1ccc(C(=O)Nc2nc(CC(=O)NCCc3ccccc3OC)cs2)cc1,-21%,-26%
O=C(NCc1ccc(F)cc1)c1cc(C2CCCCN2C(=O)c2cccs2)on1 (stereo unspecified),-8%,i
N#C/C(=C\c1cccs1)C(=O)Nc1ccccn1,5%,i
Cc1ccc(NC(=O)c2ccc(CSc3nnnn3C)cc2)cc1,-2%,-9%
O=C(NCc1ccncc1)[C@@H]1CCCN1C(=O)[C@H]1CCCN1C(=O)c1cccc2ccccc12,9%,1%
COc1ccc(C)cc1-n1cnc2sc(C)c(C)c2c1=O,0%,1%
Nc1sccc1C(=O)c1ccc(Cl)cc1,-12%,-2%

# Ordered by SMILES length (largest number first): some entries from above
SMILES,Vaccinia Venus,VACV mCherry inh
Nc1cc(C(=O)N2CCN(c3ccc([N+](=O)[O-])cc3)CC2)ccc1N1CC2CC(C1)c1cccc(=O)n1C2 (stereo unspecified),-14%,-16%
O=C(NCc1ccncc1)[C@@H]1CCCN1C(=O)[C@H]1CCCN1C(=O)c1cccc2ccccc12,9%,1%
Cc1ccc(N(CC(=O)Nc2ccccc2C(=O)NCc2ccco2)S(=O)(=O)c2ccccc2)cc1C,-15%,-2%
COc1cc(NC(=O)CN2C(=O)C(c3ccccc3)=NC2(C)C)cc(OC)c1,-15%,i
COc1cc(C(=O)Oc2cccc(C(=S)N3CCOCC3)c2)cc(OC)c1OC,-15%,i
CCOc1ccccc1N1CCN(C(=O)C(Sc2ccccc2)c2ccccc2)CC1 (stereo unspecified),-19%,.
COc1cccc(C(=O)NCC(c2ccco2)N2CCc3ccccc3C2)c1 (stereo unspecified),-3%,-11%
Cc1ccc(NC(=O)c2ccc(CSc3nnnn3C)cc2)cc1,-2%,-9%
CCOC(=O)C1CSc2[nH]c(=O)sc2C1c1ccccc1 (stereo unspecified),-17%,-27%
COc1ccc(C)cc1-n1cnc2sc(C)c(C)c2c1=O,0%,1%
N#C/C(=C\c1cccs1)C(=O)Nc1ccccn1,5%,i
Cc1cccc(CSCCNC(=S)Nc2ccccc2)c1,-10%,-13%
Nc1sccc1C(=O)c1ccc(Cl)cc1,-12%,-2%

# (cont.)
SMILES,Vaccinia Venus,VACV mCherry inh
Cc1cc(C)cc(NS(=O)(=O)c2coc(C(N)=O)c2)c1,6%,-6%
N#C/C(=C\c1cccc(Oc2ccccc2)c1)C(=O)N1CCOCC1,-17%,-4%
COc1ccc(C2CC(=O)Nc3cc(C)c(C)cc32)c(OC)c1OC (stereo unspecified),-17%,.
O=C(c1cccc(F)c1)N1CCC(c2c[nH]c3ccccc23)(c2c[nH]c3ccccc23)CC1,-10%,-20%
O=C(c1ccc(COc2ccccc2Cl)o1)N1N=C(C(F)F)CC1(O)C(F)F (stereo unspecified),-27%,-28%
O=C(COC(=O)c1ccc(O)cc1O)NNC(=O)c1cccs1,-9%,-10%
O=C(COC(=O)C12CC3CC(CC(Br)(C3)C1)C2)Nc1ccc2[nH]c(=O)[nH]c2c1,-12%,-13%
CCC(=O)NNC(=O)CCC(=O)Nc1ccc(C)cc1C,-4%,10%
Cc1c(Cl)cccc1NC(=O)CSc1ncnc2c1cnn2CCc1ccccc1,-13%,-15%[1.46 µM]
CCN(C(=O)c1ccc(NC(=O)C2CCCCC2C(=O)O)cc1)c1ccccc1 (stereo unspecified),-17%,i
COc1ccc(OC)c(NC(=O)c2cc3cc(C)ccc3n2C)c1,-7%,-5%
CC1CN(CCCCOc2ccc(F)cc2)CC(C)O1 (stereo unspecified),2%,i
Cc1nn(Cc2ccc(Cl)cc2)c2sc(C(=O)OCC(N)=O)cc12,-21%,.
Cc1ccc(-c2nc3ncccn3c2NC2CCCC2)o1,-19%,-16%
Cc1c(C(=O)NCc2ccccc2Cl)sc2nc3n(c(=O)c12)CCCC3,18%,-2%
Cc1ccc(S(=O)(=O)N(Cc2ccccc2F)C(=O)N2CCN(C)CC2)cc1,-10%,i
CCCCn1nnnc1C1(C)CCC(=O)N1CCCN1CCOCC1 (stereo unspecified),6%,42%[activator]
C[C@@H]1CN([C@@H](C)CO)C(=O)c2cccc(NC(=O)c3ccncc3)c2O[C@@H]1CN(C)Cc1ccc(-c2ccccc2)cc1,?,i
Fc1ccc(-c2cnc3n2CCCCC3)cc1,-3%,-25%
C[C@H]1CN([C@@H](C)CO)C(=O)c2cc(NC(=O)C3CCCCC3)ccc2O[C@H]1CN(C)S(=O)(=O)c1ccccc1,-25%,-4%
CCOC(=O)c1c(/N=C/C2C(=O)CCCC2=O)sc(C)c1C,-3%,-19%
COc1ccc(C(=O)NC(c2ccccc2Cl)c2cc(Cl)c3cccnc3c2O)cc1 (stereo unspecified),-12%[7.34 µM],-15%[7.34 µM]
O=C(NCCCN1CCCC1)c1cc(Sc2ccc(F)cc2)nc2ccccc12,-11%,-15%
Cc1cccc(C(=O)N2CCc3c([nH]c4ccccc34)C2CC(C)C)n1 (stereo unspecified),4%,-23%
CCCCn1c(N)c(N(CCC(C)C)C(=O)Cc2ccc(S(=O)(=O)N3CCOCC3)s2)c(=O)[nH]c1=O,-18%,i
COc1cccc(C2C(C#N)=C(N)Oc3cc(N)ccc32)c1OC (stereo unspecified),-14%,i
CCCc1nc2ccccc2c(=O)n1-c1ccc(OC)cc1,-19%,-25%
CCCCN1C(=N)N([C@@H](CCC)CN2CCC[C@H]2CN2C(N)=NC[C@H]2CC(C)C)C[C@H]1Cc1ccccc1,-8%,i
COc1cc(C2c3c(-c4c(C)cc(C)cc4O)n[nH]c3C(=O)N2CCO)cc(OC)c1OC (stereo unspecified),8%,-9%
Cc1c(C(=O)N(C)Cc2ccccc2)oc2c(Cl)cccc12,9%,-18%
CCN(CC)CCNC(=O)CNC(=S)N(CCCN1CCOCC1)Cc1cccs1,-16%,-13%
CC(C)Oc1ccc(NC(=O)C2CCCNC2=O)cc1 (stereo unspecified),1%,-4%
O=C1/C(=C/c2cccnc2)N2CCC1CC2,2%,-29%
CCc1ccc2[nH]c(=O)c(CN(Cc3ccc(OC)cc3)Cc3nnnn3CCOC)cc2c1,-5%,.
CCN(CC(=O)Nc1c(F)cccc1F)C(=O)CCCc1nc2ccccc2c(=O)[nH]1,-3%,-10%
O=c1c2ccccc2ncn1-c1cccc(Br)c1,-12%,-6%
COc1cc(C)ccc1OCCOc1c(C)cc(Cl)cc1Cl,-6%,-13%
CC(C)C[C@H]1CN(CCCC[C@H]2CNC(=O)C(=O)N2CC2CCCCC2)C(=O)C(=O)N1CC1CCCCC1,0%,-14%
CC1Cc2ccccc2N1C(=O)CSC1=NCCS1 (stereo unspecified),-24%,-8%
O=C(N/C(=C/c1ccc(Br)cc1)C(=O)N1CCCC1)c1cccs1,-13%,i
COc1ccc(-c2ccc(NS(=O)(=O)c3ccccc3Cl)cc2)nn1,-8%,-9%
